# Source: PubChem BioAssay
# Methyltransferases: Primary Screen for Target Class Profiling of Small Molecule Inhibitors of Methyltransferases; purified enzyme, MTase-Glo SAH luminescence; stronger effect = lower value; calls only at 40 µM; 25,000 tested, 3.9% active; AID 1745853, 2022; active = -50% or lower on at least one of six enzymes; inconclusive = the cases between; inactive = as a rule above -30% on all six;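 also: enzymes were COMT GAMT GNMT HNMT NNMT and PNMT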
#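 Each enzyme was reacted with SAM and its substrate, with compounds tested once at 40 uM; SAH formed was read by MTase-Glo luminescence.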
# Calls only; i = inactive; u = inconclusive; + = active, no number. % is scaled to controls: 0 for no effect and ±100 for the full control effect.
# Preview:
SMILES,Methyltransferases
CN1C(=O)c2ccccc2NC(=O)[C@]12O[C@@H]2c1ccccc1,i
CN1CN(c2ccccc2)C2(CCN(CCCC(=O)c3ccc(F)cc3)CC2)C1=O,i
CN(C)c1ccc(C2c3cccn3-c3ccccc3CN2C(=O)Nc2cccc(C(F)(F)F)c2)cc1 (stereo not given),i
COc1cccc(NC(=O)N2Cc3ccccc3-n3cccc3C2c2ccc(F)cc2)c1 (stereo not given),i
CCOC(=O)Cc1ccc(NC(=O)N2Cc3ccccc3-n3cccc3C2c2ccc(OC)cc2)cc1 (stereo not given),i
CN(C)CC(=O)Nc1ccc2n(c1=O)C[C@H]1C[C@@H]2CN(C(=O)c2cccnc2)C1,i
C[C@@H]1O[C@@H](O[C@H]2C[C@@H](O)[C@]3(CO)[C@@H]4C(CC[C@]3(O)C2)[C@@]2(O)CC[C@H]([C@@H]3COC(=O)C3)[C@@]2(C)C[C@H]4O)[C@H](O)[C@H](O)[C@H]1O (stereo not given in full),i
CCc1ccc(C2c3cccn3-c3ccccc3CN2C(=O)Nc2cc(C)ccc2C)cc1 (stereo not given),i
CCOc1ccc(C2c3cccn3-c3ccccc3CN2C(=O)Nc2ccc(C)c(Cl)c2)cc1 (stereo not given),i
O=C(NCCc1ccccc1)N1Cc2ccccc2-n2cccc2C1c1ccc(F)cc1 (stereo not given),i
CN1CC2(C1)C(=O)N(C)C(=O)[C@@H]1C[C@@H](O)CN12,i
COCCCNC(=O)N1Cc2ccccc2-n2cccc2C1c1ccc(Cl)cc1 (stereo not given),i
C=C[C@H]1CN2CC[C@H]1C[C@@H]2CNC(=O)N1CCOCC1,i
Fc1cc(F)c2c(c1)C1C=CCC1C(c1cccnc1)N2 (stereo not given),u
CC1c2cccn2-c2ccccc2CN1C(=O)Nc1ccc(Cl)cc1 (stereo not given),i
Cc1ccc(NC(=O)N2Cc3ccccc3-n3cccc3C2C(C)C)cc1C (stereo not given),i
CNCc1cn(C[C@H]2CC3CCN2C[C@@H]3C(=O)Nc2ccccc2)nn1 (stereo not given in full),i
CCc1ccc(NC(=O)N2Cc3ccccc3-n3cccc3C2c2cccs2)cc1 (stereo not given),i
CCc1ccccc1NC(=O)N1Cc2ccccc2-n2cccc2C1CC (stereo not given),i
CCC1c2cccn2-c2ccccc2CN1C(=O)Nc1ccc(C)c(F)c1 (stereo not given),i

# All compounds of this part, from the start:
SMILES,Methyltransferases
CN1C(=O)c2ccccc2NC(=O)[C@]12O[C@@H]2c1ccccc1,i
CN1CN(c2ccccc2)C2(CCN(CCCC(=O)c3ccc(F)cc3)CC2)C1=O,i
CN(C)c1ccc(C2c3cccn3-c3ccccc3CN2C(=O)Nc2cccc(C(F)(F)F)c2)cc1 (stereo not given),i
COc1cccc(NC(=O)N2Cc3ccccc3-n3cccc3C2c2ccc(F)cc2)c1 (stereo not given),i
CCOC(=O)Cc1ccc(NC(=O)N2Cc3ccccc3-n3cccc3C2c2ccc(OC)cc2)cc1 (stereo not given),i
CN(C)CC(=O)Nc1ccc2n(c1=O)C[C@H]1C[C@@H]2CN(C(=O)c2cccnc2)C1,i
C[C@@H]1O[C@@H](O[C@H]2C[C@@H](O)[C@]3(CO)[C@@H]4C(CC[C@]3(O)C2)[C@@]2(O)CC[C@H]([C@@H]3COC(=O)C3)[C@@]2(C)C[C@H]4O)[C@H](O)[C@H](O)[C@H]1O (stereo not given in full),i
CCc1ccc(C2c3cccn3-c3ccccc3CN2C(=O)Nc2cc(C)ccc2C)cc1 (stereo not given),i
CCOc1ccc(C2c3cccn3-c3ccccc3CN2C(=O)Nc2ccc(C)c(Cl)c2)cc1 (stereo not given),i
O=C(NCCc1ccccc1)N1Cc2ccccc2-n2cccc2C1c1ccc(F)cc1 (stereo not given),i
CN1CC2(C1)C(=O)N(C)C(=O)[C@@H]1C[C@@H](O)CN12,i
COCCCNC(=O)N1Cc2ccccc2-n2cccc2C1c1ccc(Cl)cc1 (stereo not given),i
C=C[C@H]1CN2CC[C@H]1C[C@@H]2CNC(=O)N1CCOCC1,i
Fc1cc(F)c2c(c1)C1C=CCC1C(c1cccnc1)N2 (stereo not given),u
CC1c2cccn2-c2ccccc2CN1C(=O)Nc1ccc(Cl)cc1 (stereo not given),i
Cc1ccc(NC(=O)N2Cc3ccccc3-n3cccc3C2C(C)C)cc1C (stereo not given),i
CNCc1cn(C[C@H]2CC3CCN2C[C@@H]3C(=O)Nc2ccccc2)nn1 (stereo not given in full),i
CCc1ccc(NC(=O)N2Cc3ccccc3-n3cccc3C2c2cccs2)cc1 (stereo not given),i
CCc1ccccc1NC(=O)N1Cc2ccccc2-n2cccc2C1CC (stereo not given),i
CCC1c2cccn2-c2ccccc2CN1C(=O)Nc1ccc(C)c(F)c1 (stereo not given),i
CC(C)N(CCNC(=O)CN1CCCC1=O)C(C)C,i
COc1ccc(OC)c(NC(=O)N2Cc3ccccc3-n3cccc3C2c2ccc(C(C)C)cc2)c1 (stereo not given),i
CCOCCCNC(=O)N1Cc2ccccc2-n2cccc2C1c1ccccc1C (stereo not given),i
O=C(Nc1ccc2c(c1)OCCO2)N1Cc2ccccc2-n2cccc2C1c1cccc(Cl)c1 (stereo not given),i
COC(=O)c1ccc(NC(=O)N2Cc3ccccc3-n3cccc3C2c2ccc(OC)c(OC)c2)cc1 (stereo not given),i
# Next compounds:
SMILES,Methyltransferases
CCOC(=O)c1ncn2c1[C@@H]1CCCN1C(=O)c1cc(OC)ccc1-2,i
CCOc1ccc(C2c3cccn3-c3ccccc3CN2C(=O)Nc2ccccc2)cc1 (stereo not given),i
CCC1c2cccn2-c2ccccc2CN1C(=O)Nc1ccc(OC)cc1OC (stereo not given),i
O=C([C@H]1CN2CCC1C[C@@H]2Cn1cc(-c2ccccn2)nn1)N1CCOCC1 (stereo not given in full),i
CC12Cc3cn[nH]c3C=C1CCC1C2CCC2(C)C1CCC2(C)O (stereo not given),i
CCOc1ccc(C2c3cccn3-c3ccccc3CN2C(=O)Nc2ccc(Cl)cc2)cc1 (stereo not given),i
CCC(C)(OC(C)=O)C(=O)O[C@H]1[C@H](OC(C)=O)C[C@@H]2[C@@](C)([C@@H]3C[C@H]4C=CO[C@H]4O3)[C@H](C)C[C@H](OC(C)=O)[C@@]2(COC(C)=O)[C@@]12CO2 (stereo not given in full),i
CCOc1ccc(C2c3cccn3-c3ccccc3CN2C(=O)Nc2ccc(C)cc2C)cc1 (stereo not given),i
NC(CCCCCP(=O)(O)O)C(=O)O (stereo not given),i
CCc1ccc(NC(=O)N2Cc3ccccc3-n3cccc3C2c2ccccc2Cl)cc1 (stereo not given),i
CCC1=CC2CN3CCc4c([nH]c5ccccc45)[C@@](C(=O)OC)(C2)[C@@H]13,i
CSc1ccc(C2c3cccn3-c3ccccc3CN2C(=O)Nc2ccc(C)cc2C)cc1 (stereo not given),i
NCC(CP(=O)(O)O)c1ccc(Cl)cc1 (stereo not given),i
COc1ccc(C2c3cccn3-c3ccccc3CN2C(=O)Nc2ccccc2)cc1OC (stereo not given),i
Cc1ccc(CNC(=O)N2Cc3ccccc3-n3cccc3C2c2ccccc2C)cc1 (stereo not given),i
O=C(N[C@@H](COc1ccc2[nH]c(=O)[nH]c2c1)c1ccccc1)c1cccn(Cc2ccc(F)c(F)c2)c1=O,u
Cc1ccc(NC(=O)N2Cc3ccccc3-n3cccc3C2C(C)C)cc1F (stereo not given),i
C[C@@H](N)Cc1cnc[nH]1,i
CCc1ccc(C2c3cccn3-c3ccccc3CN2C(=O)NCCCOC)cc1 (stereo not given),i
O=C(c1ccncc1)N1C2CCC1CN(Cc1cccnc1)C2,i
NC(=O)c1ccc(N2CC3CCC(C2)N3CC(F)(F)F)nn1,+
COC(=O)[C@@]12C(=O)C(C)C(=O)[C@]1(C)C(C)=C[C@H]1[C@]3(C=O)CC[C@H](OC(C)=O)C(C)(C)[C@H]3CC[C@@]12C (stereo not given in full),i
CC1=CC2OC3CC(O)[C@](C)([C@@]2(C)C(O)C1=O)[C@]31CO1 (stereo not given in full),i
Oc1ccc2c3c1O[C@H]1c4[nH]c5ccccc5c4C[C@@]4(O)C(C2)N(CC2CC2)CCC314 (stereo not given in full),i
C=CCN1C[C@@H](C)N([C@H](c2ccc(C(=O)N(CC)CC)cc2)c2cccc(OC)c2)C[C@@H]1C,i
# (listing goes on)
SMILES,Methyltransferases
Cc1cccc(C2c3cccn3-c3ccccc3CN2C(=O)Nc2ccccc2Br)c1 (stereo not given),i
CCC1c2cccn2-c2ccccc2CN1C(=O)Nc1cc(Cl)ccc1OC (stereo not given),i
COc1ccccc1NC(=O)N1Cc2ccccc2-n2cccc2C1c1ccc(SC)cc1 (stereo not given),i
c1cnc2c(c1)NC1(CCCNC1)C(=NC1CCCC1)N2 (stereo not given),i
CCCN1CCN(C(=O)Cc2cccn2-c2ccc(F)cc2)CC1,i
CSc1ccc(C2c3cccn3-c3ccccc3CN2C(=O)Nc2cccc(Cl)c2C)cc1 (stereo not given),i
CNC1CCc2ccccc21 (stereo not given),+
Cc1ccc(C2c3cccn3-c3ccccc3CN2C(=O)NCc2ccco2)cc1 (stereo not given),i
COc1ccccc1NC(=O)N1Cc2ccccc2-n2cccc2C1c1ccccc1C (stereo not given),i
CCOc1ccc(C2c3cccn3-c3ccccc3CN2C(=O)Nc2ccc(F)cc2F)cc1 (stereo not given),i
COc1ccc(C2c3cccn3-c3ccccc3CN2C(=O)NCc2ccco2)cc1OC (stereo not given),i
Cc1cccc(NC(=O)N2Cc3ccccc3-n3cccc3C2c2ccc(F)cc2)c1 (stereo not given),i
Cc1ccccc1NC(=O)N1Cc2ccccc2-n2cccc2C1c1ccc(N(C)C)cc1 (stereo not given),i
CC(C)NC(=O)N1Cc2ccccc2-n2cccc2C1c1ccccc1Cl (stereo not given),i
C[C@H]1C/C=C/[C@H]2[C@@H]3O[C@]3(C)[C@@H](C)[C@H]3[C@H](Cc4ccccc4)NC(=O)[C@]32OC(=O)O/C=C/[C@@](C)(O)C1=O,i
COc1ccc(C2c3cccn3-c3ccccc3CN2C(=O)NC2CCCC2)cc1 (stereo not given),i
C#C[C@H]1CN2CC[C@H]1C[C@@H]2CNC(=O)C1CC1,i
CCCNC(=O)N1Cc2ccccc2-n2cccc2C1c1ccc(C)cc1 (stereo not given),i
CCC1c2cccn2-c2ccccc2CN1C(=O)Nc1ccc(OC)c(OC)c1 (stereo not given),i
C/C=C1/CN2CC[C@]34C(=Nc5ccccc53)[C@@H]2C[C@@H]1[C@H]4C(=O)OC,i
O=[N+]([O-])c1ccc2nc(N3CCNCC3)ccc2c1,i
COc1ccc(OC)c(NC(=O)N2Cc3ccccc3-n3cccc3C2c2cc(F)cc(F)c2)c1 (stereo not given),i
CN(C)CCc1c[nH]c2ccc(CN3CCN(C)S3(=O)=O)cc12,u
COC[C@H]1C[C@@H](NCc2cn(C)c3ccccc23)[C@H](O)[C@@H]1O,i
CCc1ccc(C2c3cccn3-c3ccccc3CN2C(=O)NCc2cccc(OC)c2)cc1 (stereo not given),i
# Remaining list, next part
SMILES,Methyltransferases
CCOCCCNC(=O)N1Cc2ccccc2-n2cccc2C1c1ccccc1 (stereo not given),i
COc1cccc(CNC(=O)N2Cc3ccccc3-n3cccc3C2c2ccc(C(C)C)cc2)c1 (stereo not given),i
C[C@H]1CCCC(=O)CCC/C=C/c2cc(O)cc(O)c2C(=O)O1,+
Cc1ccccc1C1c2cccn2-c2ccccc2CN1C(=O)Nc1cccc(C)c1C (stereo not given),i
COC1CC(OC2CCC3(C)C(CCC4C3CCC3(C)C(C5=CC(=O)OC5)C(OC(C)=O)CC43O)C2)OC(C)C1OC1OC(CO)C(O)C(O)C1O (stereo not given),i
CC(=O)c1ccc(NC(=O)OC[C@H]2C[C@@H]3CCN2C[C@@H]3c2cc(C3CCCC3)nc(-c3ccncc3)n2)cc1,u
O=C(c1ccccc1)N1C[C@@H](c2ccc3c(c2)OCO3)[C@@H]2[C@H]1C1CCN2CC1,i
CC1=CC2/C=C(\C)CCC(O)C(O)C(O)CC(=O)C23C(=O)NC(CC(C)C)C3C1C (stereo not given),i
Cc1cccc(C2c3cccn3-c3ccccc3CN2C(=O)NCc2ccco2)c1 (stereo not given),i
CSc1ccc(C2c3cccn3-c3ccccc3CN2C(=O)Nc2cccc(C(F)(F)F)c2)cc1 (stereo not given),i
COc1cc(OC)c(NC(=O)N2Cc3ccccc3-n3cccc3C2C)cc1Cl (stereo not given),i
CCNC(=O)[C@H]1O[C@@H](n2cnc3c(N)ncnc32)[C@H](O)[C@@H]1O,i
CN(C)c1ccc(C2c3cccn3-c3ccccc3CN2C(=O)Nc2ccccc2F)cc1 (stereo not given),i
COc1cccc(NC(=O)N2Cc3ccccc3-n3cccc3C2c2cc(F)cc(F)c2)c1 (stereo not given),i
Cc1cccc(C2c3cccn3-c3ccccc3CN2C(=O)Nc2ccc(C)c(C)c2)c1 (stereo not given),i
COc1ccc(NC(=O)N2Cc3ccccc3-n3cccc3C2c2cccs2)c(OC)c1 (stereo not given),i
Cn1cnc(S(=O)(=O)N2[C@H]3CC[C@@H]2c2cnc(-c4ccccc4)nc2C3)c1,i
CC(=O)N(C1CC1)C1CCOC2(CCNCC2)C1 (stereo not given),i
C=C[C@H]1CN2CC[C@H]1C[C@@H]2[C@@H](O)c1ccnc2ccccc12,i
O=c1c(-c2cccc(C(F)(F)F)c2)ccc2n1C[C@H]1C[C@@H]2CN(S(=O)(=O)c2cccs2)C1,i
COc1cc(NC(=O)N2Cc3ccccc3-n3cccc3C2c2ccccc2)cc(OC)c1 (stereo not given),i
COc1cccc(NC(=O)N2Cc3ccccc3-n3cccc3C2c2cccc(Cl)c2)c1 (stereo not given),i
Cc1ccc(NC(=O)N2Cc3ccccc3-n3cccc3C2C)c(C)c1 (stereo not given),i

# A second format for some results above.
Molecule	Methyltransferases
CC1=CC2/C=C(\C)CCC(O)C(O)C(O)CC(=O)C23C(=O)NC(CC(C)C)C3C1C (stereo not given)	i
COc1cccc(NC(=O)N2Cc3ccccc3-n3cccc3C2c2cc(F)cc(F)c2)c1 (stereo not given)	i

# This is a subset; rates above refer to the full screens.
